MLL AF4-AF9 inh: blocks AF4 peptide binding to human AF9. AlphaScreen, biotin-AF4 peptide binding to FLAG-AF9. inhibition, % at 10 µM. actives 0.47% (n = 350,000). AID 651704;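 active means every replicate reaching a set inhibition limit, whatever the replicate mean, cut at about 25% in these data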;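 further: 0% = plate neutral control median and 100% = total signal loss; the record names both 10 and 1 µM as test concentration; the first replicate is given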
Target sequence (P42568 whole entry, looked up): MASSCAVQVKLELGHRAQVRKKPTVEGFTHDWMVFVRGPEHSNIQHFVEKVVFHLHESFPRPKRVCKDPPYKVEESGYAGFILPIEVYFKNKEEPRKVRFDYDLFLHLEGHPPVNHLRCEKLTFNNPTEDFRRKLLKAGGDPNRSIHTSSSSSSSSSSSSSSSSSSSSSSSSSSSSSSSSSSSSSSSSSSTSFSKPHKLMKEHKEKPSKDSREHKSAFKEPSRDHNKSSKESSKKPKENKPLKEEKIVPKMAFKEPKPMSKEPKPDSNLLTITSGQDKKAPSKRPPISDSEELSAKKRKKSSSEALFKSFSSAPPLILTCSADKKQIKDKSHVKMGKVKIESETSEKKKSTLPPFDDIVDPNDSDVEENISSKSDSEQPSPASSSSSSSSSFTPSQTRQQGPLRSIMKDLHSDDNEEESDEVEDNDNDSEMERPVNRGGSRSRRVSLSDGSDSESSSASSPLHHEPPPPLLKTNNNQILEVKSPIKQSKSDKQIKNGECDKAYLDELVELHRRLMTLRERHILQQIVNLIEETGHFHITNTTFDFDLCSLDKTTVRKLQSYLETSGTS
rRNA inh HTS: inhibits bacterial ribosomal RNA function over humanized ribosomes; E. coli WT GFP vs humanized-ribosome RFP mutants, fluorescence, 24 h; active compounds read low; DMSO median 0, no signal -100; GFP signal change (wild-type ribosome), % (no concentration beside the values); actives 1.6% (n = 350,000);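 active means significant combined selectivity score with lowered wild-type GFP, culture density cut under 30%, mutant RFP and density less affected; inactive means any of these conditions unmet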; further: one replicate is shown; some compounds called inactive have numbers as strong as hits
rRNA inh HTS OD600: recorded beside rRNA inh HTS, whose call it bears; OD600 change, %; measured here: OD600 growth;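 optical density of the mix in the first replicate; 0 = DMSO median and -100 = no signal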
rRNA inh HTS RFP: further read-out of rRNA inh HTS, marked with its call; RFP signal change, %; measured here: RFP humanized mutant strains;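 first replicate; 0 = DMSO median and -100 = no signal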
* marks the source's active call; other numbers are inactive results; & = joins results of further samples. Not all compounds are listed; the hit share may differ from the screen's.

SMILES	MLL AF4-AF9 inh	rRNA inh HTS	rRNA inh HTS OD600	rRNA inh HTS RFP
C[C@@H]1CN([C@@H](C)CO)C(=O)c2cccc(NC(=O)c3ccncc3)c2O[C@@H]1CN(C)Cc1ccc(C(=O)O)cc1	1.8	0	-2	-1.6
COc1ccc(NC(=O)N(C)C[C@H]2Oc3ncc(C4=CCCC4)cc3C(=O)N([C@@H](C)CO)C[C@@H]2C)cc1	-3.1	4	8	-1.5
CCC(=O)Nc1ccc2c(c1)OC[C@H](C)NC[C@@H](C)[C@H](OC)CN(C)C2=O	-0.1	2	5	-1.7
CC(C)NC(=O)N[C@H]1C=C[C@H](CC(=O)NCc2ccc(Oc3ccccc3)cc2)O[C@H]1CO	-2.1	-5	1	1.0
COCC#Cc1ccc2c(c1)O[C@@H](CN(C)C(=O)CC1CC1)[C@@H](C)CN([C@@H](C)CO)S2(=O)=O	-2.4	2	7	-1.7
COc1ccc(C#Cc2ccc([C@@H]3[C@@H](CO)N4C(=O)CN(C(=O)C5CCOCC5)C[C@H]34)cc2)cc1	-0.2	0	2	3.6
CCCCN(C=O)c1c(CC)nc2ccc(C(=O)N3CCCCC3)cn12	-5.2	1	14	-11
O=C(C[C@H]1CC[C@@H](NS(=O)(=O)c2ccc(F)cc2)[C@@H](CO)O1)NCCc1ccncc1	0.2	-2	6	1.8
C[C@@H]1CN([C@@H](C)CO)C(=O)Cc2cc(NC(=O)CCN3CCOCC3)ccc2O[C@H]1CN(C)C(=O)Nc1ccc2c(c1)OCO2	0.2	0	4	-0.7
COc1cccc(NC(=O)N[C@H]2CC[C@H](CC(=O)NCc3ccncn3)O[C@@H]2CO)c1	1.9	5	15	-0.7
COCC#Cc1ccc2c(c1)O[C@@H](CN(C)C(=O)Nc1ccccc1F)[C@H](C)CN([C@@H](C)CO)S2(=O)=O	-2.1	1	-2	1.7
COc1ccc(-c2ccc3c(c2)[C@@H]2[C@@H](CCN2C(=O)CN2CCOCC2)[C@@H](CO)N3)cc1	0.5	5	1	2.9
CN1C(=O)c2cc(NC(=O)c3ccc(F)c(F)c3)ccc2OC[C@@H]2O[C@@H](CC(=O)N3CCCCC3)CC[C@@H]21	-1.3	-5	-6	0.9
CC(C)NC(=O)N(C)C[C@@H]1Oc2ccc(NC(=O)Cc3cn(C)c4ccccc34)cc2C(=O)N([C@H](C)CO)C[C@@H]1C	-9.5	-2	3	1.2
C[C@H](CO)N1C[C@H](C)[C@@H](CN(C)Cc2ccc(Cl)c(Cl)c2)OCCCC[C@H](C)Oc2ccc(NC(=O)CCC(F)(F)F)cc2C1=O	1.2&-6.8	2&-4	1&-13	13&0.8
CN1c2ccc(-c3cccc(F)c3)cc2[C@H]2[C@H](CCN2C(=O)Cc2ccccc2)[C@@H]1CO	-1.5	-13	-43	11
C[C@H]1CN([C@@H](C)CO)C(=O)c2cccc(NC(=O)Nc3ccc4c(c3)OCO4)c2O[C@@H]1CN(C)Cc1ccc(C(=O)Nc2ccccc2N)cc1	0.7	-5	-7	-1.2
CCCNC(=O)[C@H]1[C@H](CO)[C@H]2Cn3c(ccc(-c4ccccc4F)c3=O)[C@H]2N1C	-2.0	0	0	6.0
C[C@@H]1CN([C@@H](C)CO)C(=O)c2cc(NS(=O)(=O)c3ccc(F)cc3)ccc2O[C@@H](C)CCCCO[C@H]1CN(C)C(=O)Nc1cccc2ccccc12	0.6	4	-1	5.2
Cc1noc(C)c1NC(=O)Nc1ccc2c(c1)C(=O)N([C@H](C)CO)C[C@H](C)[C@H](CN(C)C(=O)Nc1ccc3c(c1)OCO3)O2	-0.4	-1	2	-0.1
CCCCN(C(=O)c1cc(S(=O)(=O)N2CCCCC2)ccc1Cl)c1c(N)n(CCC)c(=O)[nH]c1=O	-15	2	4	-0.7
O=C1CN(S(=O)(=O)Cc2ccccc2)C[C@@H]2[C@@H](c3ccc(C#Cc4cccnc4)cc3)[C@@H](CO)N12	2.0	0	-15	3.3
Cc1noc(C)c1NC(=O)Nc1cccc2c1O[C@@H](CN(C)Cc1ccc(Cl)c(Cl)c1)[C@H](C)CN([C@H](C)CO)C2=O	3.0	-7	-16	0.1
c1cc(-c2ccc(N3CCOCC3)cc2)n2ccnc2c1	1.4	-4	-9	-5.0
Cc1ccccc1S(=O)(=O)N1CCN(c2ccc3c(c2)C2CC3CCN2C(=O)OCc2ccccc2)CC1 (configuration not stated)	4.8	24	17	2.5
CCCNC(=O)NC[C@H]1[C@H](c2ccc(C3=CCCCC3)cc2)[C@@H](CO)N1C(C)=O	4.4	1	-26	7.2
COc1ccc(C#Cc2ccc([C@H]3[C@H](CO)N4CCCCN(S(=O)(=O)c5ccccc5)C[C@@H]34)cc2)cc1	4.4	-2	8	0.5
CO[C@@H]1CN(C)C(=O)c2ccc(NC(=O)c3cnccn3)cc2OC[C@@H](C)NC[C@H]1C	-3.8	2	2	1.0
COCC(=O)Nc1ccc2c(c1)[C@H]1C[C@@H](CC(=O)N[C@H](C)c3ccccc3)O[C@@H](CO)[C@H]1O2	1.5	3	7	-1.2
NCC[C@H]1CC[C@H](NS(=O)(=O)c2ccccc2F)[C@@H](CO)O1	1.0	-1	9	-2.1
COC(=O)[C@]12C[C@H](CC(=O)NCCCN3CCCC3=O)C(=O)N(Cc3ccccc3)C1=C[C@H](C(C)C)O[C@@H]2C1CC1	-0.7	11	12	2.9
CC(C)NC(=O)C1(C)CN(S(C)(=O)=O)CC(=O)N1Cc1ccc2c(c1)OCO2 (configuration not stated)	-1.0	16	20	0.5
O=C(C[C@@H]1CC[C@@H](NC(=O)Nc2ccccc2F)[C@H](CO)O1)NCc1ccc(-c2ccccc2)cc1	1.1	-1	-3	-4.3
CNC[C@H]1Oc2ccc(NC(=O)C3CCCCC3)cc2CC(=O)N([C@@H](C)CO)C[C@H]1C	-7.2	3	-1	-3.4
COCc1cn(CC[C@@H]2CC[C@H](NC(=O)Nc3ccc(Cl)cc3)[C@H](CO)O2)nn1	1.3	0	-2	-0.1
CC(C)C#Cc1ccc2c(c1)O[C@@H](CN(C)C(=O)c1ccccn1)[C@H](C)CN([C@H](C)CO)S2(=O)=O	1.7	1	3	0.7
C[C@@H]1CN([C@H](C)CO)S(=O)(=O)c2ccc(C#CCN(C)C)cc2O[C@H]1CN(C)Cc1ccccn1	0.4	-3	-6	1.0
Cc1ccc(N2CCN(C(=O)C3CCN(S(=O)(=O)c4cccc5nsnc45)CC3)CC2C)cc1 (configuration not stated)	7.3	1	-7	4.2
CN(C)C(=O)c1cccc(-c2cccc(-c3nc(C(=O)NCc4ccccc4)cc4c3[C@H](CCO)N([S@@](=O)C(C)(C)C)C4)c2)c1	6.2	-2	-7	28
COc1ccccc1-c1ccc([C@@H]2[C@@H](C#N)N[C@@H]2CO)cc1	-1.1	3	12	-3.7
C[C@H]1CCCCO[C@H](CN(C)C(=O)Nc2ccc(C(F)(F)F)cc2)[C@@H](C)CN([C@@H](C)CO)C(=O)c2cc(NS(=O)(=O)c3ccccc3)ccc2O1	-5.4	0	7	-2.2
C[C@H](NC(=O)[C@@H]1[C@@H](CO)[C@@H]2Cn3c(cccc3=O)[C@H]1N2Cc1ccccc1)c1ccccc1	-1.7	1	6	0.5
O=C(C[C@H]1C[C@@H]2c3cc(NC(=O)Nc4ccccc4F)ccc3O[C@@H]2[C@H](CO)O1)NC1CCCC1	-15	-2	2	-2.5
CCc1nc2ccc(C(=O)N(C)Cc3ccccc3)cn2c1N(C)CCCc1ccccc1	-5.4	-37	-63	-6.5
Cc1ccc(S(=O)(=O)NCC[C@@H]2CC[C@H](NC(=O)Nc3ccccc3F)[C@@H](CO)O2)cc1	1.0	1	6	-3.2
COc1ccc(NC(=O)Nc2ccc3c(c2)CC(=O)N([C@@H](C)CO)C[C@@H](C)[C@H](CN(C)C(=O)Nc2ccccc2)O3)cc1	1.2	-3	2	-0.8
CO[C@H]1CN(C)C(=O)c2cccc(C#N)c2OC[C@H]2O[C@@H](CC[C@H]2OC)CCN(C)C(=O)[C@H]1C	-3.0	6	15	-2.6
COc1ccccc1-c1cnc2c(c1)C(=O)N([C@H](C)CO)C[C@@H](C)[C@@H](CN(C)C(=O)c1ccncc1)O2	-4.0	4	4	-2.5
Cc1ccc(S(=O)(=O)N(C)C[C@H]2Oc3ccc(N(C)C)cc3CC(=O)N([C@@H](C)CO)C[C@H]2C)cc1	-1.5	0	-4	1.6
CO[C@H]1CN(C)C(=O)c2ccc(NS(=O)(=O)c3cccc(F)c3)cc2OC[C@H](C)N(C(=O)Cc2cccnc2)C[C@H]1C	-2.1	-1	-1	0.0
O=C(Nc1cccc(F)c1)N1C[C@H]2[C@@H](c3ccccc31)[C@@H](CO)N2C(=O)Cc1ccccn1	3.1	-2	4	0.6
N#C[C@H]1[C@@H](c2ccc(-c3cccc(F)c3)cc2)[C@H](CO)N1C(=O)NC1CCCC1	-0.8	-13	-49	-3.2
CCOC(=O)C1(C)CCN1C(=O)c1cccc(Cl)c1 (configuration not stated)	-1.3	31	21	4.4
C[C@H](CO)N1C[C@H](C)[C@H](CN(C)Cc2ccc(Oc3ccccc3)cc2)Oc2ccc(NS(=O)(=O)c3ccccc3)cc2CC1=O	6.0	-1	-1	-0.4
CN(C)CCCNC(=O)C[C@@H]1CC[C@@H](NC(=O)Cc2cccnc2)[C@H](CO)O1	-3.1	3	-7	-1.0
C[C@H](CO)N1C[C@H](C)[C@@H](CN(C)S(=O)(=O)c2ccc(F)cc2)Oc2ccc(NC(=O)C3CCCCC3)cc2CC1=O	-7.6	-6	-3	9.8
CCCNC(=O)N1CC2(C1)CN(C(=O)c1ccccc1)[C@@H](CO)c1[nH]c3cc(OC)ccc3c12	1.3	2	-1	-0.1
C[C@@H]1CN([C@@H](C)CO)C(=O)c2cc(Br)cnc2O[C@H]1CN(C)C(=O)Cc1ccccn1	-3.4&-4.6	3&7	9&14	0.5&-0.1
C[C@@H]1CN([C@H](C)CO)C(=O)c2cccc(NS(C)(=O)=O)c2O[C@H]1CN(C)C(=O)Nc1ccccc1	-2.7	2	3	0.0
Cc1c(C(=O)NCc2ccc(F)cc2)sc(=O)n1Cc1ccc(C(=O)c2ccccc2)cc1	-2.5	-1	-1	-1.3
More entries follow.
SMILES	MLL AF4-AF9 inh	rRNA inh HTS	rRNA inh HTS OD600	rRNA inh HTS RFP
C[C@H]1CN([C@@H](C)CO)C(=O)c2cc(C#CCc3ccccc3)cnc2O[C@@H]1CN(C)Cc1ccc(C(=O)O)cc1	13	5	1	1.5
O=C(C[C@H]1CC[C@@H]2[C@H](COC[C@@H](O)CN2C(=O)Nc2cc(Cl)cc(Cl)c2)O1)NCC1CCCCC1	-1.2	-4	-42	16
C[C@@H]1CN([C@@H](C)CO)C(=O)c2cccc(NS(C)(=O)=O)c2O[C@@H]1CN(C)Cc1ccc(Cl)c(Cl)c1	-0.6	-5	-9	0.8
O=C(c1ccccn1)N1C[C@@H]2[C@H](c3ccccc31)[C@@H](CO)N2C(=O)C1CCCCC1	-0.1	-1	8	-1.0
O=C(C[C@H]1CC[C@@H]2[C@H](COC[C@@H](O)CN2Cc2ccccc2)O1)NCCc1ccccc1	0.9	-2	-6	0.0
COC(=O)c1ccc2nc(-c3cccc(Br)c3)c(Cc3ccccc3C(F)(F)F)n2c1	-1.1	20	9	3.7
Cn1cnc(CCNC(=O)C[C@H]2CC[C@@H]3[C@H](COC[C@@H](O)CN3C(=O)C3CCCC3)O2)c1	-1.9	4	-13	16
COc1ccc(Cc2c(-c3ccccc3)nc3c(C)cc(Br)cn23)c(C)c1	-1.3	1	-1	3.6
OC[C@@H]1[C@H](c2ccc(-c3cccnc3)cc2)[C@H]2CN(CC3CC3)CCCCN12	3.7	4	16	0.2
CCOc1ccc(/C=N/NC(=O)c2ccc3nc[nH]c3c2)cc1OC	-1.7	6	6	3.3
C[C@H]1CN([C@@H](C)CO)C(=O)Cc2cc(NC(=O)Nc3ccccc3)ccc2O[C@H]1CN(C)Cc1ccc(C(=O)O)cc1	-4.5	6	3	-1.9
CN(C)CCCNC(=O)C[C@@H]1CC[C@H]2[C@H](COc3ccc(NC(=O)c4ccccc4F)cc3C(=O)N2C)O1	0.3	6	5	-0.8
CC1(C(=O)NS(=O)(=O)c2cccs2)CCN1C(=O)Cc1ccc(-c2ccccc2)cc1 (configuration not stated)	1.0	1	15	2.7

Compounds from the list above with a Cl atom:
SMILES	MLL AF4-AF9 inh	rRNA inh HTS	rRNA inh HTS OD600	rRNA inh HTS RFP
C[C@H](CO)N1C[C@H](C)[C@@H](CN(C)Cc2ccc(Cl)c(Cl)c2)OCCCC[C@H](C)Oc2ccc(NC(=O)CCC(F)(F)F)cc2C1=O	1.2&-6.8	2&-4	1&-13	13&0.8
CCCCN(C(=O)c1cc(S(=O)(=O)N2CCCCC2)ccc1Cl)c1c(N)n(CCC)c(=O)[nH]c1=O	-15	2	4	-0.7
Cc1noc(C)c1NC(=O)Nc1cccc2c1O[C@@H](CN(C)Cc1ccc(Cl)c(Cl)c1)[C@H](C)CN([C@H](C)CO)C2=O	3.0	-7	-16	0.1
COCc1cn(CC[C@@H]2CC[C@H](NC(=O)Nc3ccc(Cl)cc3)[C@H](CO)O2)nn1	1.3	0	-2	-0.1
CCOC(=O)C1(C)CCN1C(=O)c1cccc(Cl)c1 (configuration not stated)	-1.3	31	21	4.4
O=C(C[C@H]1CC[C@@H]2[C@H](COC[C@@H](O)CN2C(=O)Nc2cc(Cl)cc(Cl)c2)O1)NCC1CCCCC1	-1.2	-4	-42	16
C[C@@H]1CN([C@@H](C)CO)C(=O)c2cccc(NS(C)(=O)=O)c2O[C@@H]1CN(C)Cc1ccc(Cl)c(Cl)c1	-0.6	-5	-9	0.8

Source: PubChem (Broad Institute)
